# Screening results from PubChem BioAssay.
# Cruzain inh noDet: inhibitors of Trypanosoma cruzi cruzain without detergent | P25779 | purified cruzain, Z-FR-AMC fluorescence, no detergent | Potency, µM, for inactives: max response, negative = inhibition, hits mostly inhibitors | hit rate 2.3% among 200,000 | AID 1476;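 also: plate controls were enzyme without inhibitor for no effect and buffer without enzyme for full effect; nearly all actives have a fitted effect of over 40% in size; top concentration of the series not given in the record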
# Target sequence (P25779 123-467 limits assumed): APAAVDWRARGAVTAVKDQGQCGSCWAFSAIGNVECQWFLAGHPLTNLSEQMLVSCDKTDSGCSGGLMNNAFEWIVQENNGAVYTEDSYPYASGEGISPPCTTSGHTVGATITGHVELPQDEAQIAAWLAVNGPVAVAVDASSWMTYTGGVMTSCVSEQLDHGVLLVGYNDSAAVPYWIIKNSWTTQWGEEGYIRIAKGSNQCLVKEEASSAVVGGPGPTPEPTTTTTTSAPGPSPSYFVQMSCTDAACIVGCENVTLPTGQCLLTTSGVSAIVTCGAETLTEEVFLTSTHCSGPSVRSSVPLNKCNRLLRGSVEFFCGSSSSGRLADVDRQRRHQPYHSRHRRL
#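 Purified cruzain at 1.5 nM, pre-incubated 15 min with compound at room temperature in 100 mM sodium acetate pH 5.5, 5 mM DTT, 0.00005% Triton X-100. Reaction started with 2 uM Z-FR-AMC; AMC fluorescence increase over 60 s gives rate.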
# NS1 inh: inhibitors of influenza NS1 protein function. hit rate 0.4% among 270,000. Potency, µM (highest dose often 46.1 µM), for the others: at the highest dose activity, positive = more growth. S. cerevisiae slowed by influenza A NS1, growth recovery by OD600. AID 2326; active means well fitted rising curve with a large enough effect; inconclusive means small, poorly fitted or top-dose-only effect; inactive means no such curve, though single readings can be large or run the other way; also: nearly all actives have a fitted effect of over 50% in size
#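 Recovery from NS1-induced slow growth read by OD600 in budding yeast switched to galactose assay medium (pH 6.0, -URA) at 1:100 dilution. Compound 23 nl per well; the matching strain lacking NS1 serves as control.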
# SARS PLP yeast: blocks SARS-CoV papain-like protease in a yeast assay | S. cerevisiae expressing SARS-CoV PLpro, growth rescue; control for the full effect not named in the record | hit rate 0.19% among 330,000 | AID 485353 | Potency, µM (top dose mostly 32.9 µM), without a hit: top-dose activity, positive = growth rescue; active means well fitted rising curve with a large enough effect; inconclusive means small, poorly fitted or top-dose-only effect; inactive means no such curve, though single readings can be large or run the other way; also: 0% is about no effect; nearly all actives have a fitted effect of over 55% in size; growth read by luminescence after 48 h
# LASV entry inh: Lassa virus entry inhibition; Lassa virus pseudotype entry inhibition, cell reporter; control for the full effect not named in the record; Potency, µM (titrated, usually from 37.9 µM), for the others: top-dose activity change, negative = inhibition, actives largely listed as inhibitors; hit rate 1.2% among 300,000; AID 540256; active means well fitted inhibition curve with a large enough effect; inconclusive means small, poorly fitted or top-dose-only effect, or effect the other way; inactive means flat fitted curve, though single readings scatter; tested in HEK293 cells; also: % is scaled to controls: 0 for no effect and ±100 for the full control effect; nearly all actives have a fitted effect of over 50% in size; luciferase read-out
# Marburg entry inh: blocks Marburg virus binding to or entry into cells. Marburg virus pseudotyped entry inhibition, cell reporter; control for the full effect not named in the record; about a third of the inactives were read at about 46 µM. Potency, µM (series often up to 37.8 µM), without a hit: top-dose activity change, negative = inhibition, usual class: inhibitors. hit rate 1.8% among 300,000. AID 540276; active = well fitted inhibition curve with a large enough effect; inconclusive = small, poorly fitted or top-dose-only effect, or effect the other way; inactive = flat fitted curve, though single readings scatter; tested in HEK293 cells; about a fifth of its hits are not listed in these tables; also: % is scaled to controls: 0 for no effect and ±100 for the full control effect; luciferase read-out
# RE007 growth inh: less growth of the S. pombe RE007 Vpr strain; S. pombe RE007 Vpr strain, BacTiter-Glo ATP luminescence, 24 h; control for the full effect not named in the record; Potency, µM (doses to about 92.2 µM), for inactives: at the top dose activity change, negative = less growth; hit rate 0.21% among 360,000; AID 651644; active = well fitted falling curve with a large enough effect; inconclusive = small, poorly fitted or top-dose-only effect; inactive = no such curve, though single readings can be large or run the other way;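 also: % is scaled to controls: 0 for no effect and ±100 for the full control effect; nearly all actives have a fitted effect of over 50% in size; the assay follows cell death caused by Vpr and the record does not say whether a fall means rescue or toxicity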
#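 Fission yeast RE007 carrying one integrated HIV-1 vpr copy, seeded at OD 0.01 in PMG+AL medium with 23 nL pinned compound. Grown 24 h at 30 degrees; viability read by BacTiter-Glo luminescence after 5 min.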
# Cruzain Triton: cruzain (T. cruzi) inhibition with detergent. AID 1478. Potency, µM, for inactives: max response, negative = inhibition, actives largely listed as inhibitors. hit rate 0.43% among 200,000. purified cruzain, Z-FR-AMC fluorescence, 0.01% Triton;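 also: plate controls were neutral wells for no effect and buffer without enzyme for full effect; nearly all actives have a fitted effect of over 40% in size; top concentration of the series not given in the record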
#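 Compounds were screened in titration against cruzain (1.5 nM) with 0.01% Triton X-100 to counter colloidal aggregation. Activity was the AMC fluorescence increase over 60 s after adding 2 uM Z-FR-AMC at pH 5.5.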
# 2A StopGo: FMDV 2A StopGo reporter, luciferase signal; hit rate 1.2% among 410,000; human cells with a luciferase reporter of 2A StopGo recoding; control for the full effect not named in the record; Potency, µM (titrated, usually from 57.9 µM), for inactives: at the top dose signal change, negative = less light; active = well fitted falling curve with a large enough effect; inconclusive = small, poorly fitted or top-dose-only effect; inactive = no such curve, though single readings can be large or run the other way; tested in HEK293T cells; also: % is scaled to controls: 0 for no effect and ±100 for the full control effect; nearly all actives have a fitted effect of over 45% in size; luciferase light after 4 h
# Active calls of the source: *; ? = inconclusive; / = no result given; & = joins results of further samples; [ ] = remark or other dose. Unless noted, calls follow the shape of the dose curve; as a rule, active = well fitted curve in the direction sought with a large enough effect; inconclusive = small, poorly fitted or top-dose-only effect, or another doubt; inactive = no such curve, though single readings can be large; an effect the other way counts as inactive or inconclusive. Potency is read from the fitted curve at half-maximal effect.
SMILES,Cruzain inh noDet,NS1 inh,SARS PLP yeast,LASV entry inh,Marburg entry inh,RE007 growth inh,Cruzain Triton,2A StopGo
Cc1c(NC(=O)C2CCCN2S(=O)(=O)c2ccccc2)c(=O)n(-c2ccccc2)n1C (stereo unspecified),12%,7.1µM*,1%,3%,-10%[46.1 µM],4%,6.4%,4%
O=C(Nc1nccs1)C(F)(F)C(F)(F)C(F)(F)C(=O)Nc1nccs1,/,-5%,0%,5%,5%[46.1 µM],16%,/,-6%
CC1CCCCN1CC(=O)Nc1sc2c(c1C#N)CCC2 (stereo unspecified),-4%,0%,-2%,-27%,-23%,-19%,-8.0%,-16%
Cc1cccc(CSc2nnc(N)n2-c2ccccc2)c1,6%,-2%,3%,13%,-1%,11%,-2.5%,-8%
COc1ccc(NC(=O)CCCN2C(=O)C(c3ccccc3)Oc3cccnc32)cc1 (stereo unspecified),/,-7%,3%,/,/,3%,/,-3%
CCC1C2CC3C4N(C)c5ccccc5C45CC(C2C5O)N3[C@@H]1O (stereo partly specified),/,-3%,-2%,/,/,-4%,/,-21%
CCCc1nnc(SCC(=O)N2C(C)CCCC2C)n1CCCOC (stereo unspecified),3%,3%,-3%,17%,19%,9%,2.6%,7%
CC(C)c1ccc(C(=O)Nc2nnc(S(=O)(=O)N3CCOCC3)s2)cc1,/,6%,-5%,/,/,-5%,/,-1%
COc1ccc(-c2nc3ccccc3o2)cc1NC(=O)c1ccc(-c2cccc(Cl)c2C)o1,3%,/,/,0%[46.1 µM],/,/,-1.1%,-8%
Cc1cc(O)c(C(c2ccc(F)cc2)N2CCN(c3ccccc3)CC2)c(=O)n1Cc1ccco1 (stereo unspecified),-18%,/,/,6%[46.1 µM],/,/,1.0%,0%
COc1ccc(C2CC(c3ccccc3)=NN2C(=O)COC(=O)c2cccnc2Cl)cc1 (stereo unspecified),16%,?,1%,4%,-23%,8%,-7.4%,0%
O=C(Nc1ccccc1C(=O)NC(Cc1c[nH]c2ccccc12)C(=O)O)c1ccco1 (stereo unspecified),3%,?,7%,0%,0%[46.1 µM],-1%,-5.6%,-7%
Cc1ccc(Sc2ccc(N)cn2)cc1,/,8%,0%,9%[46.1 µM],?,-1%,/,0%
CN(Cc1ccccc1)C(=O)COC(=O)CCNC(=O)c1ccccc1Cl,/,/,1%,9%,0%,-10%,/,1%
Cn1cc(/C=C(\C#N)C(=O)Nc2ccccc2O)c2ccccc21,/,-2%,-3%,?,?,-1%,/,-44%
CCOc1ccc(NC(=O)CN(C)C(=O)COc2cccc(CC)c2)cc1OCC,/,/,3%,10%,15%,3%,/,-3%
Cc1ccc(OCCOc2cccc(Br)c2)c([N+](=O)[O-])n1,7%,-9%,-21%,14%,?,-18%,-3.0%,34%[activator]
O=C1c2cccc3cc([N+](=O)[O-])cc(c23)C(=O)N1CCN1CCCC1,/,-6%,-1%,?,4µM*,-17%,/,-1%
Cn1c(=O)c2c(SCC(=O)c3ccccc3)nc(C3CC3)nc2n(C)c1=O,-5%,-89%,6%,/,/,0%,-5.2%,?
O=C(Nc1ncccc1O)c1cccc(S(=O)(=O)N2CCCc3ccccc32)c1,/,/,-48%,1%,7%,-21%,/,39%[activator]
CCN(CC)Cc1c(NC(=O)c2ccc(OC)cc2)sc2c1CCCC2,?,/,/,?,/,/,-2.2%,29%
Cc1ccc(CNC(=O)Cc2ccc(-c3ccccc3)cc2)cc1,?,11%,9%,-30%,?,12%,7.0%,8%
O=C(/C=C/c1cccc(C(F)(F)F)c1)NNC(=O)c1ccncc1,/,/,-2%,6%,-2%[46.1 µM],16%,/,-18%
Cc1ccc(S(=O)(=O)N(C)c2ccc(NS(C)(=O)=O)cc2)cc1,22%,-3%,/,?,?,18%,-0.3%,-9%
COc1ccc(N=Cc2cc(Cl)ccc2O)cc1Cl,/,/,-2%,-1%[46.1 µM],3%[46.1 µM],9%,/,-17%
# New compounds follow
SMILES,Cruzain inh noDet,NS1 inh,SARS PLP yeast,LASV entry inh,Marburg entry inh,RE007 growth inh,Cruzain Triton,2A StopGo
CCN(CC)c1nc(N2CCN(CCO)CC2)nc2ccccc12,/,1%,-1%,/,/,10%,/,-5%
O=[N+]([O-])c1cccnc1SCc1c(F)cccc1Cl,/,4%,-2%,-2%[46.1 µM],?,2%,/,-16%
COC(CNC(=O)C1CCN(S(=O)(=O)c2ccc3nc4c(c(C(=O)O)c3c2)CC(C)CC4)CC1)OC (stereo unspecified),/,13%,1%,/,/,10%,/,-13%
O=C(O)CCC(=O)N1CCc2cc(S(=O)(=O)NCc3ccc(Cl)cc3)ccc21,/,1%,0%,22%[46.1 µM],-20%[46.1 µM],6%,/,2%
CCn1c(SCc2ccccc2)nc2ccccc2c1=O,/,/,/,3%[46.1 µM],-20%[46.1 µM],9%,/,8%
CCOC(=O)N1CCC(NS(=O)(=O)c2ccccc2)CC1,/,3%,0%,/,/,3%,/,0%
O=C(NCc1ccncc1)c1nc(-c2cccs2)no1,/,/,1%,10%,?,-13%,/,0%
CCn1c(NCc2ccc3c(c2)OCO3)nc2ccccc21,-11%,-11%,0%,19%,?,-19%,3.3%,43%[activator]
Cc1cc(C)n(-c2nnc(C)c(=O)[nH]2)n1,0%,-7%,6%,-8%,-21%,-1%,1.0%,-5%
CCCCOc1ccc(C(=O)NCCc2sc3nc(-c4ccc(OC)cc4)nn3c2C)cc1,7%,/,/,1%[46.1 µM],/,/,-0.2%,-10%
O=C(N/N=C/C=C/c1ccccc1)c1cnccn1,-9%,0%,-5%,0%,6%,-9%,-9.3%,21%
COc1nc2ccc(C)cc2cc1-c1noc(-c2cccnc2)n1,?,-16%,1%,0%,?,-9%,0.0%,-7%
Cc1ccc(CSc2nnc(-c3cccc(S(=O)(=O)N4CCOCC4)c3)n2C2CCCC2)cc1,?,4%,10%,?,?,0%,-3.2%,?
CCCCC(=O)NCc1ccccc1Cl,/,2%,0%,16%[46.1 µM],?,19%,/,7%
Cc1ccc(C(=O)OCC(=O)NCCC2=CCCCC2)s1,-4%,-3%,-13%,-1%,23%,-9%,-3.8%,5%
Cc1cccc(-[n+]2c(-c3cccc(Br)c3)[nH]c3nc4ccccc4nc32)c1,/,3%,0%,6%,?,-4%,/,-6%
CC(C)(C)c1ccc(C(=O)NCCC(=O)NCc2ccco2)cc1,0%,-170%,-51%,-21%,3%,7%,-12%,-4%
NC1=NC(=O)C(Cc2cccc(Cl)c2)S1 (stereo unspecified),-12%,8%,17%,28%,?,3%,-0.1%,15%
CSCC[C@H](NC(=O)NCc1ccc(F)cc1)C(=O)O,-5%,-2%,-3%,18%,?,4%,7.7%,-17%
Cc1ccc(S(=O)(=O)N2CCN(c3nc(C(C)C)c4c(c3C#N)CC(C)(C)OC4)CC2)cc1,?,4%,12%,-11%,?,18%,-6.8%,-9%
COc1ccc(C(=O)N/C(=C\c2cn(S(=O)(=O)N(C)C)c3ccccc23)C(=O)NCCCn2ccnc2)cc1,4%,-4%,-5%,?,-12%&-12%[46.1 µM],-1%,-5.1%,27%&-4%
Cc1ccc(-n2nc3c(N4CCC(C(=O)N5CCCCC5)CC4)nnc(C)c3c2C)cc1,-5%,/,/,?,/,/,-4.0%,-20%
O=C(NCc1ccc(F)cc1)c1c2c(nc3ccccc13)CCC2,/,/,-2%,26%,24%[46.1 µM],0%,/,60%[activator]
CC(=O)Nc1ccc(N/C(C)=C/C(=O)c2cccnc2)cc1,-1%,19%,-20%,18%,-2%,-16%,-8.0%,10%
CCCCn1c(=O)c(C=Nc2cc([N+](=O)[O-])ccc2OC)c(O)n(CCCCl)c1=O,-12%,25%,2%,18%,-13%,3%,-9.1%,-20%
# Continued.
SMILES,Cruzain inh noDet,NS1 inh,SARS PLP yeast,LASV entry inh,Marburg entry inh,RE007 growth inh,Cruzain Triton,2A StopGo
O=C(c1nc2ccc(Cl)cn2c1CN1CCC(O)CC1)N1CCc2ccccc2C1,/,-2%,1%,/,/,-7%,/,-20%
Cc1ccc(S(=O)(=O)N2CCN(C(=O)C3CCCCC3)CC2)cc1,5%,-15%,3%,14%,1%,9%,0.7%,/
O=C(O)CSc1ncnc2sc3c(c12)CCCC3,/,1%,1%,12%,9%[46.1 µM],3%,/,-9%
COc1ccc(NC(=O)CSCC(=O)N(C)Cc2cccc(OC)c2OC)cc1,/,/,-3%,-4%,16%,0%,/,-9%
COc1cccc(-c2ccc(C#N)c(=O)[nH]2)c1,/,/,-3%,-2%,-14%[46.1 µM],1%,/,7%
C=CCN(c1ccccc1)S(=O)(=O)c1ccc(Cl)c(C(=O)OCC(=O)c2[nH]c(C)c(C(C)=O)c2C)c1,?,24%,14%,-6%,-28%,3%,-2.3%,?
COC(=O)CSc1nnc(CNC(=O)c2ccccc2F)n1-c1ccc(F)cc1,/,/,1%,-6%,-11%[46.1 µM],42%,/,-8%
O=Nc1c(O)[nH]c2ccc(Cl)c(Cl)c12,/,/,/,4%[46.1 µM],?,-13%,/,-9%
COc1ccc2c(c1)CCc1c(C(=O)Nc3ccc(F)c(Cl)c3)noc1-2,-5%,/,/,22%[46.1 µM],-12%[46.1 µM],/,-3.3%,13%
Cc1ccc(C(=O)c2ccc(O)cc2)cc1C,-3%,-17%,-18%,-18%,-2%,-23%,-3.0%,40%[activator]
CC(=O)c1cccc(NC(=O)C(C)OC(=O)c2ccc(-n3cnnn3)cc2)c1 (stereo unspecified),/,/,-4%,14%,-24%,10%,/,-20%
O=C(CSc1ccc(-c2ccccn2)nn1)N1CCCC1,/,/,0%,7%,?,7%,/,52%[activator]
CC(=O)N1CCc2[nH]c3ccc(C)cc3c2C1,/,-2%,0%,/,/,12%,/,13%
Cc1nnc(C)c2c(C)n(C(C)c3ccccc3)c(C)c12 (stereo unspecified),-4%,-1%,12%,-7%,-34%,-22%,-5.5%,?
CS(=O)(=O)N(CC(=O)N1CCCCC1)c1ccc2c(c1)OCO2,-15%,2%,4%,8%,6%,-4%,2.5%,14%
